Vaccinia mCherry: qHTS for Stage-Specific Inhibitors of Vaccinia Orthopoxvirus: mCherry Reporter Primary qHTS | 310,000 tested, 0.63% active | Potency, µM (highest dose often 36.5 µM), for inactives: at the top dose activity change, negative = inhibition, actives largely listed as inhibitors | Vaccinia virus mCherry reporter infection, fluorescence; about a quarter of the inactives have no number | AID 720579, 2013; active = well fitted inhibition curve with a large enough effect; inconclusive = small, poorly fitted or top-dose-only effect; inactive = no such curve, though single readings can be large or run the other way; tested in A549 cells; further: nearly all actives have a fitted effect of over 35% in size; inactives centre near -10
Vaccinia Venus: qHTS for Stage-Specific Inhibitors of Vaccinia Orthopoxvirus: Venus Reporter Primary qHTS. 330,000 tested, 0.46% active. AID 720580, 2013. Vaccinia virus Venus reporter expression, fluorescence. Potency, µM (highest dose often 36.5 µM), inactives show at the top dose activity change, negative = inhibition, hits mostly inhibitors; active means well fitted inhibition curve with a large enough effect; inconclusive means small, poorly fitted or top-dose-only effect; inactive means no such curve, though single readings can be large or run the other way; tested in A549 cells; further: nearly all actives have a fitted effect of over 30% in size; inactives centre near -10
Numbers without * were called inactive; i = inactive; ? = inconclusive; / = no result given; & = joins results of further samples; [ ] = another dose, or the depositor's remark. On the % scale 0 is the no-effect control and ±100 the full control effect; potency means the concentration at half of the fitted maximal effect.

SMILES | Vaccinia mCherry | Vaccinia Venus
Cc1cccc(NC(=O)CCNS(=O)(=O)c2ccc3c(c2)CCCC(=O)N3)c1C | 1% | 7%
CCCNc1nc(=S)n(-c2ccccc2)c(C)c1C(C)=O | i | 12%
NC(=O)CN1C(=O)C2C3CCC(C3)C2C1=O (centres undefined) | -13% | ?
COc1ccc(C(=O)NCc2ccc3c(c2)CCN3C(C)=O)c(OC)c1 | -12% | -6%
Cc1ccc(NC(=O)O/N=C2\CCCCC2c2ccc([N+](=O)[O-])cc2[N+](=O)[O-])cc1 (centres undefined) | -26% | 11%
COc1ccc(C(=O)OC2C(OC)OCC(O)C2O)cc1 (centres undefined) | i | -5%
O=C1CN=C(Nc2cccc(C(F)(F)F)c2)N1C1CCCC1 | i | -6%
Cc1nonc1NC(=O)CSc1nnc(-c2ccoc2C)n1CC(C)C | i | -2%
COc1cccc(-c2nn(C)c3sc(C(=O)NCc4ccc(C)o4)cc23)c1 | ? | ?
COc1ccc(OC)c(NC(=O)COC(=O)CCNc2ccccc2OC)c1 | i | -7%
COC(=O)c1ccccc1NC(=O)c1cccn(Cc2cccc(Cl)c2)c1=O | -20% | -19%
COc1ccc(C2Nc3cc(OC)ccc3-n3cccc32)cc1 (centres undefined) | ? | -28%
CN(c1ccccc1C(=O)Nc1ccc(F)c(F)c1)S(C)(=O)=O | i | -11%
OCC[C@@H]1C[C@H](O)[C@@H](O)[C@@]2(OCCCc3ccccc32)O1 | -19% | -6%
CCc1ccc(N2C(=O)CSC23C(=O)N(Cc2ccc(C)cc2)c2ccccc23)cc1 (centres undefined) | -9% | 0%
COc1cccc(CNC(=O)C2CCCN(S(=O)(=O)c3ccc4c(ccn4C)c3)C2)c1OC (centres undefined) | -14% | -4%
CN(Cc1ccc(F)cc1)Cc1nc(-c2ccccc2)no1 | -10% | -8%
NC(CS)C(=O)O (centres undefined) | -18% | -9%
C[C@H](CO)N1C[C@H](C)[C@@H](CN(C)C(=O)Nc2cccc(F)c2)Oc2ncc(Br)cc2C1=O | i | -4%
O=C(Nc1ccc(F)cc1Cl)c1ccc2c(=O)n3c(nc2c1)CCCCC3 | -13% | -6%
Cc1cccc2[nH]c(-c3ccc(NC(=O)c4ccco4)cc3)nc12 | ? | ?
Cc1cc(Nc2ncc(Cl)cc2Cl)n(-c2ccccc2C)n1 | -20% | -14%
COC1=C/C(=C/c2c(N)n3nc(CC(=O)N4CCCC4)sc3nc2=O)C=CC1=O | i | 1%
CC(=O)c1c(C)oc2ccc(N(C(=O)Oc3ccccc3)S(=O)(=O)c3ccc(Cl)cc3)cc12 | -17% | 1%
COc1ccc(-c2cc3c(=O)n(CC(=O)Nc4cc(C)ccc4C)ccn3n2)cc1 | -5% | 8%
Cc1cccc(NC(=O)CSc2nc(N)cc(N)n2)c1 | -11% | -11%
O=C(NNc1cc(N2CCOCC2)nc(N2CCOCC2)n1)c1ccc(Cl)cc1Cl | -7% | -9%
CN(C)S(=O)(=O)Nc1cc(F)cc(F)c1 | i | 4%
CN(C)S(=O)(=O)c1ccc(C(=O)N2CCCC2c2nc3ccccc3s2)cc1 (centres undefined) | -15%[1.46 µM] | -23%
C/C(CC(=O)Nc1ccccn1)=N\NC(=O)C(=O)Nc1ccccc1C | / | 11%
CN(CC(=O)Nc1ccc(F)cc1)C(=O)c1ccccc1Sc1ccccc1C#N | ? | -22%
Cc1ccc(N=C2C(=O)Nc3ccc(Br)cc32)cc1 | -22% | -1%
O=[N+]([O-])c1ccc(N2CCCCCC2)c2nonc12 | -15% | /
CC(C)c1ccc(Nc2c(-c3ccc(N(C)C)cc3)nc3cnccn23)cc1 | ? | -25%
CCc1cc2cc3c(cc2nc1SCC(=O)Nc1c[nH]c(=O)[nH]c1=O)OCO3 | i | 6%
O=C(CSc1nc2c([nH]c3ccccc32)c(=O)n1-c1cccc(Cl)c1)N1CCOCC1 | 31%&22%[activator] | 8%&7%
O=c1oc2ccccc2c2c1nnn2CCO | -21% | -13%
O=C(CN1C(=O)NC2(CCCC2)C1=O)OCc1ccc(F)cc1 | -5% | -1%
COc1cccc(CN(C)C(=O)COc2ccc(C(=O)c3ccc(Cl)cc3)cc2)c1OC | -7% | 5%
CC(C)N(C(=O)[C@H]1C[C@H](CC(=O)NCCCN(C)C)C(=O)N2CCc3c([nH]c4cc(CCC(=O)N(C)C)ccc34)[C@]12C)C(C)C | -10% | -4%
CCCC(=O)NC(c1ccc(OC)cc1)c1ccc2cccnc2c1O (centres undefined) | 8.9µM* | ?
O=C(/C=C/c1ccco1)NC(=S)Nc1cccc(C(=O)O)c1 | i | -7%
COc1ccc(-c2nnn(CC(=O)N(CC(=O)NC3CCCC3)Cc3ccco3)n2)cc1OC | -3% | 0%
COc1ccc(NS(=O)(=O)c2ccc(-c3coc(C)n3)cc2)c(OC)c1 | ? | -9%
O=C(Nc1ccc(NC(=O)c2cccs2)cc1)c1ccc2ccccc2c1 | i | 2%
CC1CC(C)(C)NC(=S)N1CCCC(=O)NCCc1ccc(Cl)cc1 (centres undefined) | i | 0%
O=C(Nc1nc(COc2ccccc2)cs1)c1ccccc1F | -21% | -19%
COc1cccc(CNCc2ccco2)c1O | -19% | -10%
Cc1onc(-c2c(Cl)cccc2Cl)c1NC(=O)NC1CCSC1 (centres undefined) | -5% | -12%
CCc1cc2c(cc3c(=O)n(CC(=O)NCc4cccc(Cl)c4)nc(CC)n32)s1 | -29% | -28%
COc1ccc(CNCCc2ccc3c(c2)OCO3)cc1Br | -7% | -18%
CCc1cc2c3c(c1)C(C)CC(C)(C)N3C(=O)/C2=C1\SC(=O)NC1=O (centres undefined) | i | -4%
CN(C)N=C1c2cc(S(=O)(=O)N3CCOCC3)ccc2-c2ccc(S(=O)(=O)N3CCOCC3)cc21 | -20% | -22%
COc1ccc(C(C)=O)cc1CSc1ccccn1 | -1% | -9%
CC(Cc1ccccn1)NC(=O)c1ccc(OC2CCN(Cc3ccccn3)CC2)cc1 (centres undefined) | -9% | -14%
O=c1cc(CO)oc(C(Nc2cccc([N+](=O)[O-])c2)c2ccccn2)c1O (centres undefined) | i | -5%
Cc1nc2cc(C(=O)NCCN3CCOCC3)ccc2n1-c1ccc(F)cc1F | / | 2%
COc1ccc(C2=C3C(=O)OCC3Cc3ncn(Cc4ccccc4)c32)cc1 (centres undefined) | -6% | -9%
O=C(Nc1nc2ccccc2c(=O)[nH]1)c1ccccc1SCc1ccccc1 | 4% | 2%
O=C(CCN1CC=C(c2ccccc2)CC1)NCc1ccccc1 | ? | -17%

Shown with values under each structure: six of the compounds above
Value order: Vaccinia mCherry	Vaccinia Venus
COc1ccc(C(C)=O)cc1CSc1ccccn1
    -1%	-9%
CC(Cc1ccccn1)NC(=O)c1ccc(OC2CCN(Cc3ccccn3)CC2)cc1 (centres undefined)
    -9%	-14%
O=c1cc(CO)oc(C(Nc2cccc([N+](=O)[O-])c2)c2ccccn2)c1O (centres undefined)
    i	-5%
Cc1nc2cc(C(=O)NCCN3CCOCC3)ccc2n1-c1ccc(F)cc1F
    /	2%
COc1ccc(C2=C3C(=O)OCC3Cc3ncn(Cc4ccccc4)c32)cc1 (centres undefined)
    -6%	-9%
O=C(Nc1nc2ccccc2c(=O)[nH]1)c1ccccc1SCc1ccccc1
    4%	2%

Following part
SMILES | Vaccinia mCherry | Vaccinia Venus
COC(=O)c1cc2oc(C)cc2n1Cc1c(C)cc(C)cc1C | -13% | -4%
CC(C)(C)NCc1cc2ccccc2[nH]c1=O | / | -14%
CCOC(=O)c1cc(-c2cccs2)[nH]n1 | -10%[7.34 µM] | -16%[7.34 µM]
S=C(Nc1ccccc1Cl)NC1CCN(Cc2ccccc2)CC1 | -21% | -21%
CCN1CCN(Cc2ccc(NC(=O)Nc3ccc(OC)cc3)cc2)CC1 | 0% | -6%
Cc1ccc(SCCNC(=O)CN2C(=O)c3ccccc3S2(=O)=O)cc1 | i | -10%
COc1cc(NC(=O)CS(=O)(=O)c2ccc(C)cc2)cc(OC)c1OC | / | -15%
O=[N+]([O-])c1cccc(/C=N/Nc2nc(N3CCOCC3)nc(N3CCOCC3)n2)c1 | -3% | 5%
CCS(=O)(=O)c1ccc2oc(SCC(=O)NCCc3ccc(OC)cc3)nc2c1 | -22% | -6%
O=C(NC(=S)N1CCOCC1)c1cn(-c2ccccc2)nc1-c1ccc(F)cc1 | -4% | ?
O=C(c1cccs1)C1C(c2ccc(Br)cc2)NC(=S)NC1(O)C(F)(F)F (centres undefined) | -3% | -17%
O=[N+]([O-])c1c(NCc2ccccc2)cc(N2CCc3ccccc3C2)c2nonc12 | -11% | -3%
O=C(Cc1cccs1)N(CC1CCCO1)C1(C(=O)NC2CCCCC2)CCCCC1 (centres undefined) | -10% | -9%
CC(C)COc1ccc(CSCCNC(=S)Nc2ccccc2)cc1 | / | 10µM*
CC(C)(C#CCN1CCCC1)OCCC#N | / | -7%
CCOC(=O)c1sc2nc(C)c3c(c2c1N)CC(C)(C)OC3 | / | -27%
COc1ccc(Br)cc1CN1CCN(CCO)CC1 | -13% | -7%
CC(C)CNC(=O)c1cccc(NC(=O)COc2cccc([N+](=O)[O-])c2)c1 | i | -20%
O=c1[nH]c(C2CCN(S(=O)(=O)/C=C/c3ccccc3)CC2)nc2c1nnn2Cc1ccc(F)cc1 | ? | -23%
CCOc1ccccc1NC(=O)CN(CCc1ccccc1)S(=O)(=O)c1ccc(C)cc1 | -2% | -26%
O=C(NC1CCSC1)c1cccc(Cl)c1 (centres undefined) | -14% | -12%
CC(=O)NC1=NN(C(C)=O)C(C)(c2ccco2)S1 (centres undefined) | ? | -14%
CN(CC(=O)Nc1ccccc1Cl)C(=O)Cn1cc(C(F)(F)F)cc(Cl)c1=O | -17% | -17%
Cc1cccc(OCCOC(=O)Nc2ccccc2)c1 | -12% | -16%
O=C(NCc1ccccc1)c1ccc(CN(c2ccccn2)S(=O)(=O)c2ccccc2)cc1 | -19% | -15%
O=C(Nc1ccccc1C(=O)NCCc1ccccc1)c1cnccn1 | -9% | 3%
CCOC(=O)C1(CCOC)CCN(C(C)CCc2ccc(OC)cc2)CC1 (centres undefined) | i | -26%
COc1cccc2c(SCC(=O)N/N=C/c3ccc(O)c(O)c3)cc(C)nc12 | ? | -3%
COc1cc(/C=C/c2nc3ccccc3c(=O)n2-c2ccc(O)cc2)ccc1O | -30% | 113%[activator]
COc1cccc(CN(C)C(=S)Nc2cccc(C)c2)c1 | -19% | -6%
CCOC(=O)c1sc2ncn(CC(=O)Nc3cc(C)cc(C)c3)c(=O)c2c1C | -27% | -26%
c1ccc(CSc2nnc3ccc(-c4ccncc4)nn23)cc1 | -13% | -5%
CCCN(CCC)CCCNC(=O)Cn1cnc2sc(C)c(S(=O)(=O)N3CCC(C)CC3)c2c1=O | -7%&0% | 3%&-7%
Cc1ccc(-n2ccnc(SCC(=O)NC3CCCCC3)c2=O)cc1F | i | -17%
CCOc1ccc(-c2nc(CNC(=O)Nc3ccccc3)c(C)o2)cc1 | -10% | -12%
Cc1cccc(NS(=O)(=O)c2cccc(C(=O)N3CCCC3)c2)c1 | -16% | -17%
Cc1ccc(Cn2cc(CCC(=O)NCC(C)c3ccccc3)c3ccccc32)cc1 (centres undefined) | -18% | -15%
Cc1ccc(CS(=O)(=O)c2cn(CC(=O)Nc3ccon3)c3ccccc23)cc1 | -25% | -18%
CN(C)CCN(C(=O)C1=COCCO1)c1nc2ccc(Cl)cc2s1 | -2% | -22%
COc1ccccc1NC(=O)Nc1ccc(F)c(F)c1 | -12% | -18%
O=[N+]([O-])c1ccc(CCNc2cccc3ccccc23)c([N+](=O)[O-])c1 | -19% | -19%
N#Cc1ccc(CSc2nnc(NC(=O)c3ccc4ncsc4c3)s2)cc1 | 0% | 4%
CC(C)=CC(=O)Nc1nnc(-c2ccccc2C)s1 | -3% | 0%
CCN(C(=O)Cn1cnc2sc(C)c(S(=O)(=O)N3CCN(c4ncccn4)CC3)c2c1=O)c1ccccc1F | -6% | 2%
CCCc1ncc(C(O)c2ccc(OC)cc2)n1C (centres undefined) | i | -14%
O=C(CN1CCCCC1)NNc1nc(-c2ccccc2)c2cc(Cl)ccc2n1 | -17% | -8%
O=C(Nc1ccccc1C(=O)O)c1cccc(NC(=O)c2ccccc2Br)c1 | -16% | -3%
CCC(=O)N1CCCC(C)(C(=O)Nc2ccc3oc(CC)nc3c2)C1 (centres undefined) | 16% | 6%
CC1CCN(CCNC(=S)Nc2ccc(Cl)cc2)CC1 | ? | -18%
Cc1ccc(CNC(=O)c2ccc(NC(=O)c3nsc4ccccc34)cc2)cc1 | -17%[7.34 µM] | -8%[7.34 µM]
NC(=O)CNC(=O)c1cccc(Cl)c1 | -5% | 7%
CCOC(=O)c1cc(-c2ccc(C#N)cc2)nc2c1c(C)nn2CCC#N | / | -19%
N#Cc1cnc2cc(-c3ccccc3)nn2c1N | -1%[7.34 µM] | -11%[7.34 µM]

4 of the compounds above, field by field:
CCCc1ncc(C(O)c2ccc(OC)cc2)n1C (centres undefined)
  Vaccinia mCherry = i
  Vaccinia Venus = -14%

N#Cc1ccc(CSc2nnc(NC(=O)c3ccc4ncsc4c3)s2)cc1
  Vaccinia mCherry = 0%
  Vaccinia Venus = 4%

O=C(Nc1ccccc1C(=O)O)c1cccc(NC(=O)c2ccccc2Br)c1
  Vaccinia mCherry = -16%
  Vaccinia Venus = -3%

CC1CCN(CCNC(=S)Nc2ccc(Cl)cc2)CC1
  Vaccinia mCherry = ?
  Vaccinia Venus = -18%

Source: PubChem (National Center for Advancing Translational Sciences (NCATS))
